CDC25B CDK2 inh = human CDC25B-CDK2/CyclinA binding inhibition; P30305+P24941; HTRF CDC25B-CDK2/CyclinA binding, anti-His/anti-Flag; stronger effect = higher value; z-score (concentration not given with the values); 94,000 tested, 0.72% active; AID 1259370;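 also: score is relative to mean and SD of negative controls; strong numbers were not always called active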
HIV TAR-Tat = HIV-1 TAR-Tat binding disruption | HIV-1 TAR RNA, Tat peptide displacement FRET; stronger effect = higher value | z-score (concentration not given with the values) | 100,000 tested, 0.6% active | AID 1259389;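 also: score is relative to mean and SD of negative controls; some compounds called inactive have numbers as strong as hits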
An asterisk follows results filed as active; . = no result given.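 The calls were made as follows: active = z-score from 3 up in half or more of its runs; inactive = the rest.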

The opening 6 entries (preview)
SMILES	CDC25B CDK2 inh	HIV TAR-Tat
Cc1ccc(C2=NN(c3nc(C)cs3)C(c3cccs3)C2)cc1 (centres undefined)	-1.74	0.91
CC1CCN(S(=O)(=O)c2ccc3c(c2)CCN3C(=O)Nc2ccc(Br)cc2)CC1	-0.37	1.27
CC(C)CNC(=O)C(=O)NCC(c1cccs1)S(=O)(=O)c1ccc(F)cc1 (centres undefined)	.	2.13
O=C1CN(Cc2cccc(Cl)c2)S(=O)(=O)c2ccccc2N1Cc1ccccc1	.	0.99
COc1ccc(C2SCCN2S(=O)(=O)c2ccc(F)cc2)cc1 (centres undefined)	0.66	0.86
O=C(CCc1nnc2c(=O)n(-c3cccc(F)c3)ccn12)Nc1ccc(Br)cc1	.	0.77

This part in full, from the first entry:
SMILES	CDC25B CDK2 inh	HIV TAR-Tat
Cc1ccc(C2=NN(c3nc(C)cs3)C(c3cccs3)C2)cc1 (centres undefined)	-1.74	0.91
CC1CCN(S(=O)(=O)c2ccc3c(c2)CCN3C(=O)Nc2ccc(Br)cc2)CC1	-0.37	1.27
CC(C)CNC(=O)C(=O)NCC(c1cccs1)S(=O)(=O)c1ccc(F)cc1 (centres undefined)	.	2.13
O=C1CN(Cc2cccc(Cl)c2)S(=O)(=O)c2ccccc2N1Cc1ccccc1	.	0.99
COc1ccc(C2SCCN2S(=O)(=O)c2ccc(F)cc2)cc1 (centres undefined)	0.66	0.86
O=C(CCc1nnc2c(=O)n(-c3cccc(F)c3)ccn12)Nc1ccc(Br)cc1	.	0.77
N#Cc1cnc(N(Cc2ccccc2)Cc2ccccc2)nc1N	-1.08	.
O=C(NCC1CCCO1)Nc1ccc(Cl)c(Cl)c1 (centres undefined)	2.5	.
CC(=O)Oc1ccc2c(=O)c(Oc3cc(C)cc(C)c3)c(C(F)(F)F)oc2c1	1.71	-0.57
CCCn1c(=O)c2c(nc3n2CCN3c2ccccc2)n(C)c1=O	.	2.5
COC(=O)c1c(-c2cccs2)csc1NC(C)=O	-2.28	-1.89
O=C(NC1CCCCC1)C1CCN(S(=O)(=O)c2ccc(Cl)cc2)CC1	-1.89	-0.41
COc1cc(Cl)c(C)cc1N1C(=O)c2ccncc2C1=O	.	-0.2
Cc1nn(Cc2n[nH]c(=S)n2Cc2ccccc2)c(C)c1Cl	-1.65	.
CCOC(=O)C1CCCN(C(=O)Nc2cn(C)c(=O)c3ccccc23)C1 (centres undefined)	.	-0.5
COc1ccc(C)cc1S(=O)(=O)Nc1ccc(N2CCCS2(=O)=O)cc1	.	-0.28
Cc1ccc(-c2nc(SCc3ccccc3Cl)[nH]c(=O)c2C#N)cc1	1.65	2.53
O=C(c1cccs1)n1c(=O)oc2ccccc21	.	1.62
CCOC(=O)c1sc(Nc2nc(C)cc(OC)n2)nc1C	-1.45	-0.42
CC1c2ccsc2CCN1S(=O)(=O)c1cc(C(F)(F)F)cc(C(F)(F)F)c1 (centres undefined)	0.45	.
Cc1nnc(SCC(=O)Nc2ccc(F)c(Cl)c2)c2cc3sccc3n12	.	1.83
CCCS(=O)(=O)NCCc1csc(-c2ccc(Cl)cc2)n1	.	1.32
COCc1cnc2c(c1SCC(=O)Nc1nccs1)c(=O)n(C)c(=O)n2C	.	0.85
Cn1ncc2c(N(CCO)CCO)ncnc21	.	1.57
COc1cccc(C2C=C(C(=O)O)Nc3nnnn32)c1OC (centres undefined)	.	0.11
COCCCNC(=O)C1CCCN(c2nn3c(=O)cc(C)nc3s2)C1 (centres undefined)	-0.64	-0.42
O=C(CSc1nc2c(cnn2-c2ccccc2)c(=O)[nH]1)Nc1nc2ccccc2s1	-1.45	1.35
CC(C)c1cc(C(C)C)c(S(=O)(=O)NCc2ccco2)c(C(C)C)c1	0.38	1.48
CCN(c1ncnc2c1cnn2C)C1CCCCC1	.	2.49
Cn1c(=O)oc2cc(S(=O)(=O)N3CCCC(C(=O)N4CCN(C5CCCCC5)CC4)C3)ccc21 (centres undefined)	-0.58	-0.02
Cc1cc(OS(=O)(=O)c2cccc(S(=O)(=O)Oc3ccc(Cl)c(C)c3)c2)ccc1Cl	-0.93	.
N#Cc1ccc(NC(=O)CSc2nc3ccccc3o2)cc1	-0.79	.
CCCCNc1ncnc2sc3c(c12)CCCCC3	-0.55	.
Cc1ccc(C)c(Nc2nc3ccc(C)cc3n3nnnc23)c1	-2.25	-1.33
COc1ccc(S(=O)(=O)Nc2cccnc2Oc2ccc(C)c3c2CCC3)cc1OC	-0.55	.
Cc1oc2ncn3c(C)nnc3c2c1C(=O)NC1CC1	-1.34	-0.19
O=C1NC(c2ccc(F)cc2)(C(F)(F)F)C(=O)N1Cc1ccco1 (centres undefined)	0.74	-4.46
O=C(NCc1ccc(C(F)(F)F)cc1)c1cc(Cl)cc(Cl)c1	0.41	.
Cc1ccc2c(c1)C(O)(CC(=O)c1ccc(C)c(C)c1)C(=O)N2 (centres undefined)	.	1.33
O=C(NCn1nnc2ccccc21)c1ccccc1	0.67	.
OC1(C#Cc2ccccc2)CCN(Cc2ccccc2)CC1	-0.36	-0.02
Cc1cc(=O)n2nc(N(C)CC(=O)NCCc3cccs3)sc2n1	-1.45	2.07
COC(=O)c1nccnc1N	-1.78	.
COc1ccc(N2CCN(c3c(S(=O)(=O)c4ccccc4)cnc4ccccc34)CC2)cc1	-1.14	1.23
Cn1c(=O)[nH]c(=O)c2c1nc1n2CC(c2ccccc2)=NN1	-3.05	-1.47
O=C(O)c1ccccc1OCC(O)Cn1cnc2ccccc21 (centres undefined)	-1.05	0
O=C(NCCO)C1=Cc2cc(Cl)ccc2OC=C1	-0.59	1.85
Cc1noc(C(=O)NCc2ccco2)c1Cl	-1.1	0.36
COC(=O)c1nnn(-c2nonc2N)c1CN1CCCCC1	-0.53	.
CCOC(=O)C1=C(C)Nc2nc(SC)nn2C1c1ccc(OC)c(OC)c1 (centres undefined)	-1.63	0.14

Single records, from the list above. Order of values: CDC25B CDK2 inh	HIV TAR-Tat
CCN(c1ncnc2c1cnn2C)C1CCCCC1 in the list: .	2.49
Cn1c(=O)oc2cc(S(=O)(=O)N3CCCC(C(=O)N4CCN(C5CCCCC5)CC4)C3)ccc21 (centres undefined) in the list: -0.58	-0.02
COc1ccc(C2SCCN2S(=O)(=O)c2ccc(F)cc2)cc1 (centres undefined) in the list: 0.66	0.86
O=C(CCc1nnc2c(=O)n(-c3cccc(F)c3)ccn12)Nc1ccc(Br)cc1 in the list: .	0.77
COCCCNC(=O)C1CCCN(c2nn3c(=O)cc(C)nc3s2)C1 (centres undefined) in the list: -0.64	-0.42

Carrying on.
SMILES	CDC25B CDK2 inh	HIV TAR-Tat
CSC1=NC(C)(C)CCC(C)(C)N1	-1.43	.
CCSc1nnc(NC(=O)C2CCC(CNc3c(N4CCCCC4)c(=O)c3=O)CC2)s1 (centres undefined)	-2.31	.
Clc1ccc(OCc2nc(-c3ccccc3)no2)cc1	-0.71	2.64
O=C(COc1ccc(Cl)cc1[N+](=O)[O-])N/N=C/c1ccc(-c2cccc(C(=O)O)c2)o1	-2.14	.
CC1CCCCN1CCNc1ncnc2onc(-c3cc(F)cc(F)c3)c12 (centres undefined)	.	-0.2
CCCn1nc(C)c2c(C)cc(=O)[nH]c21	.	1.29
COc1ccc(-c2nc(CSc3nncn4c3cc3oc(C)cc34)c(C)o2)cc1	.	-0.64
CS/C(=N\S(=O)(=O)c1ccccc1)N/N=C/c1ccccc1O	0.95	.
CC(C)Sc1nn2c(=O)cc(CSc3nc4ccccc4[nH]3)nc2s1	-2.49	-0.54
O=C(C1CCCO1)N1CCN(S(=O)(=O)c2cccc3nsnc23)CC1 (centres undefined)	0.3	0.81
O=C(CSc1ncnc2ccccc12)Nc1nc2ccccc2s1	-0.5	1.48
CC(N)=Nc1cc(-c2ccccc2)[nH]n1	0.02	.
CCCSc1ncc(Cl)c(C(=O)Nc2sc3c(c2C(=O)NC)CCCC3)n1	0.02	-5.91
CCOC(=O)C1=C(C(F)(F)F)Nc2ncnn2C1c1cc(OC)ccc1OC (centres undefined)	.	0.23
CCC1Sc2ccc(S(=O)(=O)CCC(=O)N3CCc4ccccc4C3)cc2NC1=O (centres undefined)	.	0.28
COc1cc(C2c3c(oc4ccccc4c3=O)C(=O)N2c2nccs2)ccc1OCc1ccccc1 (centres undefined)	1.35	0.85
O=C(Nc1cccc(CN2CCCC2)c1)NC1COc2ccccc2C1 (centres undefined)	.	1.03
Cc1cc(C)c2oc(C(=O)Nc3nc4ccc(F)cc4s3)cc(=O)c2c1	-1.35	-1.86
CC1(C)CC(=O)C2=C(C1)NCN(Cc1ccc3c(c1)OCO3)C2	-0.77	-0.5
Cc1cc(C)cc(NC(=O)CSc2nc3c(cnn3-c3ccc(S(N)(=O)=O)cc3)c(=O)[nH]2)c1	-0.25	.
COc1ccc(/C(O)=C2/C(=O)C(=O)N(CCc3ccccc3)C2c2cccc(F)c2)cc1 (centres undefined)	-4.47	-0.25
CCOC(=O)CNC(=O)c1cnc(N2CCCC2)nc1	.	0.74
Cc1ccccc1-c1noc(CSc2nnc(-c3ccncc3)n2-c2ccc(F)cc2)n1	-1.66	-0.37
Cc1ccc(Cl)cc1Nc1nn2c(=O)c3ccc(C(=O)NCC4CCCO4)cc3nc2s1 (centres undefined)	.	-0.99
C#CCn1c(C2CC(=O)N(Cc3ccco3)C2)nc2ccccc21 (centres undefined)	1.39	-1.48
CCOC(=O)c1c(N)sc2c1CC(C)(C)NC2(C)C	-1.64	0.77
Cc1cc(C)n2c(=O)n(CC(=O)Nc3cc(C)on3)nc2n1	.	1.12
Cc1cc(=O)cc(C)n1NC(=O)c1cccnc1	-1.3	.
Cc1ccc(-c2nc3scc(CCNS(=O)(=O)c4ccc(F)cc4C)n3n2)cc1	.	0.92
COc1cccc(-c2noc3ncnc(NCc4ccccn4)c23)c1	.	0.46
O=C(Cn1cc(SCC(=O)N2CCc3ccccc32)c2ccccc21)N1CCOCC1	.	1.77
Nc1ccccc1SCc1nc(-c2ccc(Cl)cc2)no1	-1.29	.
O=C(NCC1CCCO1)c1ccc(CN2C(=O)CSc3ncccc32)cc1 (centres undefined)	.	0.95
CC(C)NC(=O)C1c2ccccc2Oc2ccccc21	-0.99	0.34
Cc1scc(CN2CC(C)CC(C)C2)c1C (centres undefined)	.	0.69
COc1ccc(Br)cc1CN1CCN(C(=O)c2ccncc2)CC1	-2.43	.
COc1ccc(N2C(=O)CSC2c2ccc3cccc(O)c3n2)cc1Cl (centres undefined)	-1.95	-0.69
CCS(=O)(=O)N1CCC2(CC1)OC(=O)C(C)=C2C(=O)NC(C)C	.	1.1
O=c1nc(/C=C/c2cn(Cc3ccccc3Cl)c3ccccc23)cc(C(F)(F)F)[nH]1	-0.19	-4.03
O=C(CSc1nnc(-c2cccs2)o1)c1ccc(Br)cc1	-1.56	.
CCC(=O)N1CCc2cc(Br)cc(S(=O)(=O)N3CCCC3c3cccs3)c21 (centres undefined)	-1.8	-0.05
Cc1sc2c(c1C)CSC(C(=O)Oc1cccnc1)=C2	.	-0.35
Cc1nn(C)c(N)c1C1=CCCCC1	-1.5	0.75
Nc1ccc2nc(COc3ccc(Cl)cc3)[nH]c2c1	4.45	-1.71
CCCN1CCN(C(=O)C2CCCN(c3nn4c(=O)c5c(nc4s3)CCCC5)C2)CC1 (centres undefined)	.	0.91
C/C(=N\N=C(N)N)c1ccc(Br)cc1	-1.9	.
COCCOC(=O)C1=C(C)NC2=C(C(=O)CC(c3cccs3)C2)C1c1coc2ccccc2c1=O (centres undefined)	-0.92	0.08
COc1ccccc1N1CCN(C(=O)c2cc(C(C)(C)C)oc2C)CC1	-1.38	.
CC(C)C(NS(=O)(=O)c1ccc2c(c1)CCCC(=O)N2)C(=O)N1CCCC1 (centres undefined)	.	0.62
CC(C)n1c(CN2CCN(c3ccccc3F)CC2)nc2c1c(=O)n(C)c(=O)n2C	-1	0.51

More compounds follow:
SMILES	CDC25B CDK2 inh	HIV TAR-Tat
O=C(Cn1nnc2ccccc21)NCCSCc1ccco1	-1.82	.
COc1cccc(/C=C2\C(=O)c3ccccc3OC2c2ccccc2)c1 (centres undefined)	-0.03	.
CCc1nnc(SCC(=O)N(CC)Cc2ccccc2)c2cc3sc(C)cc3n12	.	1.88
CCc1ccc(S(=O)(=O)Nc2ccc3c(c2)N(S(=O)(=O)c2ccccc2)CCC3)s1	.	2.57
O=C(c1cc(S(=O)(=O)NC2CCCC2)cs1)N1CCCC1	.	0.65
Oc1c(CN2CCOCC2)ccc2cccnc12	1.26	0.41
O=C(CCc1nc2sc3c(c2c(=O)[nH]1)CCCCC3)NC1CCCC1	.	18.4*
CCSCCOC(=O)C1=C(C)NC2=C(C(=O)CCC2)C1c1ccccc1OCc1ccccc1 (centres undefined)	-1.16	0.04
Nc1nc2c(c(=O)[nH]1)C(c1ccc(OCc3cccc(Cl)c3)cc1)CC(=O)N2 (centres undefined)	0.3	-1.31
CC1=C(c2ccc(C(C)C)cc2)S(=O)(=O)NC1=NCc1cccnc1	-0.88	0.02

Reformatted with two lines to a compound: part of the list above
Every second line gives: CDC25B CDK2 inh	HIV TAR-Tat
Oc1c(CN2CCOCC2)ccc2cccnc12
  1.26	0.41
O=C(CCc1nc2sc3c(c2c(=O)[nH]1)CCCCC3)NC1CCCC1
  .	18.4*

(more compounds)
SMILES	CDC25B CDK2 inh	HIV TAR-Tat
Cn1ncc2c(NCc3ccco3)ncnc21	.	-0.24
CCOc1ccc(NC(=S)N2CCC(c3ccccc3OC)CC2)cc1	-1.39	.
CCOc1c(NC2CCCCC2)c(=O)c1=O	.	1.94
CC1(C)CC(=O)C2=C(C1)c1c(ccc3ccccc13)NC2c1ccc(C(=O)O)cc1 (centres undefined)	-0.64	.
O=C(Nc1ncc(Cc2ccccc2Cl)s1)c1ccc2snnc2c1	-2.04	0.09
Cc1cc(C)cc(-n2ccnc(SCc3ccc(F)cc3Cl)c2=O)c1	.	0.69
Cc1nn(-c2ccccc2)c(-n2cccc2)c1C(=O)O	0.74	1.28
Clc1ccc(-c2ccon2)c(Cl)c1	-0.97	.
O=C(O)c1nc(N2CCCCC2)c2oc3ccccc3c2n1	0.9	1.56
O=C(c1ccccc1Br)N(Cc1cccc(F)c1)C1CCS(=O)(=O)C1 (centres undefined)	-1.38	0.97

No enrichment for hits; 0.94% or so of the library scored in one or more.
